High-throughput results deposited in PubChem BioAssay by several laboratories.
Mtb betalactam = beta-lactam sensitization of Mtb H37Rv. M. tuberculosis H37Rv growth with meropenem, percent inhibition; hits of this screen are not shown here. inhibition, % at 25 µM. hit rate 0.27% among 330,000;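 active = about 74% or more and at least 40 points above the plate without the antibiotic, then above 30% in a dose series; inconclusive = first-round hits that could not be retested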;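 also: growth measured after seven days incubation then overnight dye step; 0% = bacteria only wells and 100% = bacteria with antibiotic; twin plates without the antibiotic show which effects depend on it; some results filed as inactive read as strong as hits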
Mtb growth = M. tuberculosis H37Rv growth inhibitors, H37Rv strain (AID 1626); M. tuberculosis H37Rv growth inhibition; higher % means a stronger effect; hit rate 0.95% among 220,000; inhibition, % at 10 µM; hits with a dose series show IC50 in µM;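 active = confirmed in a dose series; inconclusive = inhibition above 80% but not taken into the dose series; inactive = below 80% or under 30% at every dose of the series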;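 also: bacteria incubated seven days before Alamar blue readout; 0% = bacteria only wells and 100% = bacteria with antibiotic wells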
Arbovirus inh = antivirals against arbovirus infection. arbovirus infection cell-based antiviral screen. inhibition, % at 10 µM. hit rate 0.37% among 200,000. AID 1251;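 active = inhibition from about 30%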;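 also: bluetongue infection of BSR cells; cell survival read as ATP light after 72 h; 0% = infected wells without compound and 100% = uninfected wells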
RecA intein inh = Mtb RecA intein splicing inhibition | P9WHJ3 | cell-free RecA intein splicing, fluorescence | inhibition, %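 (about 9 µM by stock and volumes)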 | hit rate 0.75% among 290,000 | AID 2221; in the data active = inhibition above about 30%; inconclusive = no clear call, values can overlap the other calls;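 also: 0% = vehicle wells and 100% = reference inhibitor control wells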
Target sequence (P9WHJ3 whole entry, looked up): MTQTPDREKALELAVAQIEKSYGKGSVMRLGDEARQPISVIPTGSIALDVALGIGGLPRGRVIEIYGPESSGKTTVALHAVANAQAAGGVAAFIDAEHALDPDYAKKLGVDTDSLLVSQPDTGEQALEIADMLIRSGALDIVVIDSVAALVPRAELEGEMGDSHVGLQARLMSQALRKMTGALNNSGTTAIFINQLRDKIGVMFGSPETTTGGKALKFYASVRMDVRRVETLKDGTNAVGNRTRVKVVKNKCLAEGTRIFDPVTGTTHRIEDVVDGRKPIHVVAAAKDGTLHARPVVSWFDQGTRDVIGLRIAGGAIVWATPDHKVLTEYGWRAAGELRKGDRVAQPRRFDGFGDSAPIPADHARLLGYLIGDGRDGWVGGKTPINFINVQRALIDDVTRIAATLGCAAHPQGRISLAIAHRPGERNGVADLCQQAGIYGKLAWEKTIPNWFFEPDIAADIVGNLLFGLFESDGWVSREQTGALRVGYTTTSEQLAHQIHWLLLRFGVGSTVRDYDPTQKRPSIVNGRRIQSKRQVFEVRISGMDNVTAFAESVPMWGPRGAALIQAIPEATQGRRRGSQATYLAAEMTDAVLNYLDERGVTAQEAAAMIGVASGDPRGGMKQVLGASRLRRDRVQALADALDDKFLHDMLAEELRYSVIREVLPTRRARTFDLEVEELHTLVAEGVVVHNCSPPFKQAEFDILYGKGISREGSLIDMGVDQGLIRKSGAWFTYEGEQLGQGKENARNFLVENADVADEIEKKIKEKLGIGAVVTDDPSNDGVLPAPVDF
YopH inh = inhibitors of Yersinia enterocolitica YopH tyrosine phosphatase; fluorescence Ex485/Em525; inhibition, %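 (about 10 µM by stock and volumes)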; hit rate 0.16% among 140,000; AID 898;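 active = inhibition of 50% or more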;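 also: controls were vehicle for no effect and minimum signal wells for full effect; inactives centre near -20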
Arbovirus inh repeat = recorded beside Arbovirus inh, whose call it bears; inhibition, %; measured here: 10K subset replicate screen; many hits read low in the repeat;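 first of two repeat runs on a subset; 0% = infected and 100% = uninfected wells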
Starred values were filed as active, the others as inactive; u = inconclusive; x = not tested or not shown.

Preview:
SMILES	Mtb betalactam	Mtb growth	Arbovirus inh	RecA intein inh	YopH inh	others
Nc1c(Cl)c(Cl)nc(C(=O)OCC(=O)NC2CCCCC2)c1Cl	-9	x	x	-3.1	x
CC(O)[C@H]1CNC(=O)C(=O)N1CCc1cccc(F)c1 (some centres not stated)	-7	-4%	x	-2.4	x

The listing, previewed entries included:
SMILES	Mtb betalactam	Mtb growth	Arbovirus inh	RecA intein inh	YopH inh	others
Nc1c(Cl)c(Cl)nc(C(=O)OCC(=O)NC2CCCCC2)c1Cl	-9	x	x	-3.1	x
CC(O)[C@H]1CNC(=O)C(=O)N1CCc1cccc(F)c1 (some centres not stated)	-7	-4%	x	-2.4	x
Cn1c(Cc2ccccc2)nnc1SCC(=O)Nc1ccc2c(c1)OCO2	-7	-9%	-21	1.4	22
NC(=O)CC(NC(=O)Cc1cccc2ccccc12)c1ccc(N2CCC(Br)CC2)c([N+](=O)[O-])c1 (configuration not stated)	45	-3%	x	1.0	x
CN1CCN(C(=O)c2ccc(Cl)c(S(=O)(=O)N3CCCCC3)c2)CC1	-7	-1%	1	1.9	-36
O=C(O)CC(C(=O)Nc1cccc(C(F)(F)F)c1)C1CCCO1 (configuration not stated)	-4	-14%	17	x	-36	Arbovirus inh repeat=-1
Cc1c(C(=O)N2CCOCC2)sc(NC(=O)CCl)c1C#N	6	x	x	9.7	x
COc1ccc(/C=N/NC(=O)c2cc(-c3cccn3C)n[nH]2)cc1OC	-1	-11%	-4	1.1	20
COc1ccc([N+](=O)[O-])cc1NC(=O)CCC(=O)c1cccs1	-5	-5%	18	-1.3	x
COc1cccc(OC)c1CNC(=O)C1CCC(=O)N(CC2CCCCC2)C1 (configuration not stated)	1	x	x	0.4	x
CCOC(=O)C(C)CC(C)C(=O)N1CCOCCOCCN(C(=O)C(C)CC(C)C(=O)OCC)CCOCC1 (configuration not stated)	-13	-1%	16	1.9	0
Cc1cccc(NC(=O)CCCN2C(=S)NC(C)(C)CC2C)c1C (configuration not stated)	-7	8%	4	-1.4	x
COCCOc1ccc(C(F)(F)F)cc1NC(=O)COC(=O)c1cc[n+]([O-])cc1	1	x	x	-0.4	x
CC(=O)c1cccc(NC(=O)CN2C(=O)NC3(CCCCCCC3)C2=O)c1	-4	-1%	-2	-1.1	2
Cc1ccc(-c2cc([C@H]3[C@H]4C=CC[C@@H](C)[C@@H]4C(=O)N3Cc3ccccc3)ccc2F)cc1	-2	-2%	x	2.2	x
CCOC(=O)c1cc(C)sc1/N=C/C1C(=O)CCCC1=O	-5	1%	-16	-4.4	-18
COCC1CCCCN1C(=O)c1ccc(OC)c(OC2CCN(C(C)C)CC2)c1 (configuration not stated)	7	x	x	-1.2	x
Cc1ccc(/C=N/N2CCN(c3ccncc3S(=O)(=O)N3CCCCC3)CC2)cc1	8	8%	-3	1.8	-9
COc1ccccc1CNC(=O)c1cccs1	15	-12%	2	0.7	3
Cc1nc(SCC(=O)c2cc3ccccc3oc2=O)c(C#N)c(-c2cccs2)c1C(=O)Nc1ccccc1	-2	u	-3	-1.4	x
Cn1ncc(Cl)c1C(=O)Nc1ccc(Cl)cn1	-3	-4%	-3	-0.1	10
Cc1ccc(-n2nc(-c3ccc(OC(F)(F)F)cc3)cc2N)cc1C	0	2%	x	2.9	x
O=[N+]([O-])c1ccc(-c2csc(NN=C3CCCC3)n2)cc1	96	u	0	-4.7	x
O=S(=O)(c1ccc(Cl)s1)N1CCC2(CC1)OCCO2	-4	x	x	0.4	x
CC(C)(C)[C@H]1C=C(C(=O)NCc2nc3ccccc3[nH]2)O[C@@H](OCc2ccc(CO)cc2)C1	2	-2%	x	3.1	x

New compounds follow:
SMILES	Mtb betalactam	Mtb growth	Arbovirus inh	RecA intein inh	YopH inh	others
COC(=O)c1sccc1NC(=O)Nc1ccc(F)cc1F	-6	x	x	2.7	x
COc1ccc(CNC(=O)CN2C(=O)COc3ccc(S(=O)(=O)NC4CCCC4)cc32)cc1	-1	x	x	2.1	x
c1ccc2c(c1)c1ccccc1n2CN1CCOCC1	14	5%	-2	3.6	-14
Cn1c(C(=O)NC2CCCCC2)cc2c(=O)n(C)c3ccccc3c21	-9	7%	-8	3.4	-17	Arbovirus inh repeat=-8
CC(=O)c1ccc(NC(=O)COC(=O)C2C3CC4OC(=O)C2C4C3)cc1 (configuration not stated)	-3	x	x	2.2	x
CCN(CC)S(=O)(=O)c1ccc(/C=C/C(=O)OCC(=O)NCc2ccc3c(c2)OCO3)cc1	8	2%	1	-0.3	x
Cc1cc(C)nc(Sc2ccc(/C=C(\C#N)C(N)=O)o2)n1	-2	1%	1	2.1	-43
O=c1sc2ccccc2n1Cc1ccccc1	-12	3%	-4	-0.3	x
Cc1cccc(NC(=O)NNC(=O)COc2ccc([N+](=O)[O-])cc2)c1C	47	x	x	-0.1	x
Cc1ccnc(NC(=O)CCNC(=O)c2ccccc2Cl)c1	2	x	x	-0.7	x
CC1(C)Cc2c(sc(NC(=O)C(=O)NCCCN3CCOCC3)c2C#N)CO1	-5	x	x	0.2	x
CCOc1ccccc1NC(=O)N1CCCN(c2ncccc2C#N)CC1	0	x	x	4.4	x
Cc1nc(SCc2ccccc2)nc2c1CCC2	-1	1%	-4	1.1	x
Cc1cccc(-n2nc([N+](=O)[O-])c(=NCc3cccnc3)n2O)c1	-5	7%	-20	-1.0	-18
O=C(CN1C2CCC1CC(NC(=O)NC1CCCCC1)C2)NC1CC1 (configuration not stated)	-4	2%	1	-1.8	-33
O=C(NCc1ccccc1)NC(=O)c1ccncc1	u	0%	9	-0.3	-6
CC(C)(C)S(=O)(=O)c1cnc(N2CCCCC2)nc1N	-10	1%	x	0.7	x
O=C(N/N=C/c1ccc(O)cc1)c1cncc(Br)c1	44	x	x	-1.9	x
CCOC(=O)c1c(NC(=O)c2ccc(-n3cnnn3)cc2)sc2c1CCCC2	x	-1%	-31	-7.2	-23
CCCCC(=O)Nc1ccc(NC(=S)NC(=O)c2cccs2)cc1OC	47	41%	0	-2.1	-8
COc1ccc(N2C(=O)CC(Nc3cccc([N+](=O)[O-])c3)C2=O)cc1 (configuration not stated)	3	-3%	x	-0.4	x
COc1ccc(-c2csc(NC(=O)CCN3C(=O)C4CC=CCC4C3=O)n2)cc1OC (configuration not stated)	-3	x	x	-0.2	x
CCc1ccc(C(O)(CNCc2ccccc2)c2ccccc2)cc1 (configuration not stated)	12	x	x	3.1	x
Cc1ccc(NC(=O)CC2Nc3ccccc3NC2=O)cc1Cl (configuration not stated)	x	4%	x	x	-45
Cc1[nH]c2ccccc2c1SCCN	6	-4%	0	0.1	-25	Arbovirus inh repeat=3

Further results.
SMILES	Mtb betalactam	Mtb growth	Arbovirus inh	RecA intein inh	YopH inh	others
Cc1ccccc1N(C(=O)c1snc(C(N)=O)c1N)C(C(=O)NC1CCCCC1)c1ccc(O)cc1 (configuration not stated)	6	x	x	1.4	x
C[C@H](O)[C@@]1(O)CC[C@H]2[C@@H]3CC[C@@H]4C[C@H](O)CC[C@]4(C)[C@H]3CC[C@@]21C	-9	-1%	x	0.1	x
CCOc1ccc(NC(=O)c2ccc(F)c(S(=O)(=O)N3CCN(c4ccccn4)CC3)c2)cc1	-6	x	-3	1.8	-21
COCCn1c(NCc2ccccc2)nc2c1c(=O)[nH]c(=O)n2C	-4	0%	2	-0.6	-19
CCOC(=O)c1c(NC(=O)c2cccnc2)sc(C(C)=O)c1C	16	5%	5	1.0	-25
CCc1nn(CCCC(=O)NCc2ccco2)c(=O)c2cc3occc3n12	-4	x	x	-0.6	x
Cc1cccc(CSCCNC(=O)COc2ccc(Cl)cc2)c1	2	10%	-4	7.5	-12
CCCCc1ccc(S(=O)(=O)NCCc2ccncc2)cc1	32	11%	20	4.6	-20
Cc1cccc2cc(C#N)c(N3CCC(O)CC3)nc12	5	2%	-12	-25	x
CSc1cccc(CN2CCN(CCc3ccccc3)C(CCO)C2)c1 (configuration not stated)	3	5%	-7	-1.8	x
CCCc1cc(C(=O)Nc2ccc(F)cc2F)no1	66	u	2	0.1	-43
O=C(O)[C@H](Cc1c[nH]c2ccccc12)Nc1ncccc1[N+](=O)[O-]	-6	x	x	3.4	x
O=C(c1ccccc1CCc1ccccc1)N1CCCC1	-7	x	x	-0.1	x
C[n+]1ccc(C(=O)NCc2ccccc2)cc1	-2	x	x	1.2	x
CC1(C)CC(=O)C2=C(C1)c1c(ccc3ccccc13)NC2c1cc([N+](=O)[O-])cc([N+](=O)[O-])c1O (configuration not stated)	-2	-7%	11	11	x
O=[N+]([O-])c1ccc2[nH]c3c(c2c1)CCCC3	-4	2%	2	0.1	x
O=C(c1c(F)cccc1F)N(Cc1ccccc1)Cc1ccccc1	8	x	x	13	x
CN(C)S(=O)(=O)c1ccc(C(=O)NCc2nnc(SCC(=O)NCc3ccco3)o2)cc1	-10	x	x	-0.3	x
COc1ccccc1NC(=S)NC1CCC(CC2CCC(NC(=S)Nc3ccccc3OC)CC2)CC1 (configuration not stated)	1	32%	8	1.2	-25
COc1cc(C2NC(=S)NC(C)=C2C(=O)Nc2ccc(C)cc2)ccc1O (configuration not stated)	-1	-11%	1	2.8	x
CCC(CC)NC(=O)Nc1ccc(C)cc1	1	-4%	x	-2.2	x
Cc1ccc[n+](CC(=O)N2CCCc3ccccc32)c1	-7	-2%	-2	2.5	x
CCCCCc1ccc(-c2cn(CCc3c[nH]c4ccccc34)nn2)cc1	3	x	x	0.4	x
Cc1nc(Br)c(Br)c(C)c1Br	-6	-1%	x	1.0	x
CCCn1c(=O)c(C#N)cn(C2CC2)c1=O	-7	1%	x	-0.9	x

Later entries
SMILES	Mtb betalactam	Mtb growth	Arbovirus inh	RecA intein inh	YopH inh	others
CCOC(=O)c1cc(S(=O)(=O)NCc2ccc3c(c2)OCO3)cn1C	0	x	x	2.0	x
NNC(=S)Nc1ccc(S(=O)(=O)N2CCCCC2)cc1	-5	-2%	x	x	x
CCc1ccc(OCC2NCCc3cc(OC)c(OC)cc32)cc1 (configuration not stated)	-4	x	x	2.8	x
O=C1NC2(CCCCCC2)C(=O)N1Cc1ccc([N+](=O)[O-])cc1	-1	-1%	-9	-4.6	-6
O=C(NCC1CCCO1)c1cc(NS(=O)(=O)c2cccs2)cc(NS(=O)(=O)c2cccs2)c1 (configuration not stated)	-2	-4%	0	-0.2	x
Cc1ccc(C(=O)c2ccccc2C(=O)OCC(=O)NCCc2ccccc2)cc1	-9	11%	8	8.2	-3
CCCNC(=O)CC(NS(=O)(=O)c1ccc(Cl)cc1)c1ccco1 (configuration not stated)	-11	-1%	11	0.1	-43
COc1ccc(/C=N/NC(=O)c2ccncc2)c(OC)c1	99	x	x	0.5	x
NC(=O)NC(c1ccc(Cl)cc1)c1ccccc1Cl (configuration not stated)	-10	-1%	x	2.1	x
O=C(Nc1ccc2c(c1)OCO2)C1COc2ccccc2O1 (configuration not stated)	9	-5%	-6	1.9	-13	Arbovirus inh repeat=-9
O=C(c1cccc(NS(=O)(=O)c2ccc(Br)cc2)c1)N1CCCCC1	-1	x	x	0.8	x
O=C(Cc1ccc(F)cc1)NCCc1cnc[nH]1	-11	x	x	-1.2	x
COc1cc(/C=N\NC(=O)c2nonc2N)c(OC)cc1Br	8	-2%	-7	-0.6	-23
CCC(C)(C)NC(=O)CN(Cc1ccc2c(c1)OCO2)C(=O)CCC(=O)Nc1nccs1	-2	2%	0	x	x
Cc1ccc(CS/C(Nc2ccccc2C)=C(\C#N)C(N)=O)c(C)c1	3	5%	-9	-3.4	-15
COCCNC(=O)c1ccccc1N(Cc1ccccc1)S(=O)(=O)c1ccccc1	-11	x	x	1.2	x
COc1ccc([N+](=O)[O-])cc1NS(=O)(=O)Cc1ccccc1	-5	x	x	0.9	x
O=S1(=O)NC2c3ccccc3CC2O1 (configuration not stated)	1	x	x	26	x
O=C(CC12CC3CC(CC(C3)C1)C2)Nc1ccc2c(c1)COC2=O	66	-11%	-9	-1.4	-3
Cc1c(C(=O)OC(C)C)sc(N)c1C(=O)OC(C)C	9	4%	-10	-0.6	-11

Seven entries drawn at random from the list so far:
SMILES	Mtb betalactam	Mtb growth	Arbovirus inh	RecA intein inh	YopH inh	others
Cc1ccc(C(=O)c2ccccc2C(=O)OCC(=O)NCCc2ccccc2)cc1	-9	11%	8	8.2	-3
O=C1NC2(CCCCCC2)C(=O)N1Cc1ccc([N+](=O)[O-])cc1	-1	-1%	-9	-4.6	-6
CCCNC(=O)CC(NS(=O)(=O)c1ccc(Cl)cc1)c1ccco1 (configuration not stated)	-11	-1%	11	0.1	-43
COc1ccc([N+](=O)[O-])cc1NS(=O)(=O)Cc1ccccc1	-5	x	x	0.9	x
Cc1c(C(=O)OC(C)C)sc(N)c1C(=O)OC(C)C	9	4%	-10	-0.6	-11
CCc1ccc(OCC2NCCc3cc(OC)c(OC)cc32)cc1 (configuration not stated)	-4	x	x	2.8	x
O=S1(=O)NC2c3ccccc3CC2O1 (configuration not stated)	1	x	x	26	x

These rows are one share of the data. The share of hits here may be higher or lower than overall.
